# T cruzi inh = T. cruzi replication inhibition | T. cruzi beta-gal in NIH3T3, luminescence, 90 h | inhibition, % (no concentration beside the values) | 1.4% of 300,000 active;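 active = mean inhibition across valid replicates above about 55%, limit read from the data; inconclusive = mean below that limit but half or more replicates reach it; inactive = mean below it, under half of replicates reach it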;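 also: signal also drops with host cell toxicity which is not excluded here; 0% = plate median of DMSO wells and 100% = zero luminescence signal; higher percent means less beta-gal luminescence so fewer parasites; stock transfer was 50 nL into about 50 µL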
# Bfl-1 A1 inh = inhibitors of the anti-apoptotic protein A1, read as caspase activation. MEF A1-2A-BIM cells, Caspase-Glo 3/7 luminescence, 3 h; percent of clofoctol response, vehicle zero. caspase activation, % (concentration not given with the values). 0.066% of 330,000 active;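 active = over half of replicate activation scores above 10%, or exactly half above 10 with the replicate mean above 10; inconclusive = replicate mean below 10 yet half the replicates above 10; inactive = over half of replicates below 10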;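 also: wells of about 30 µL received 50 nL stock; many hits fall short of the cut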
# AF4-AF9 inh = MLL-AF4/AF9 protein interaction inhibition | AlphaScreen, biotin-AF4 peptide binding to FLAG-AF9 | inhibition, % at 10 µM | 0.47% of 350,000 active | P42568;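 active = every replicate reaching a set inhibition limit, whatever the replicate mean, cut at about 25% in these data; inconclusive = mean inhibition reaches that limit but some replicates miss it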;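 also: 0% = plate neutral control median and 100% = total signal loss; the record names both 10 and 1 µM as test concentration; the first replicate is given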
# Beta cell apopt = blocks beta cell apoptosis; INS-1E cytokine-induced death, ATP luminescence, 48 h; percent of positive-control rescue, neutral wells zero; protection from apoptosis, % (no concentration beside the values); 0.8% of 300,000 active;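 active = all replicates at 75% or more, or half of them and the mean; inconclusive = half reach 75% but not the mean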;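 also: 0% = cytokine-treated negative control wells and 100% = positive control rescue; higher means more ATP so stronger rescue from cytokine killing; wells of about 40 µL received 100 nL stock; the first replicate is given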
# Calb FLC = affects C. albicans growth with fluconazole. C. albicans CaCi-2 (fluconazole-resistant clinical isolate) + fluconazole, Alamar Blue growth, 48 h. growth inhibition, % (test concentration not listed). 0.57% of 300,000 active;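 active = most replicates above 75%; inconclusive = exactly half above 75%; inactive = most below 75%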;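 also: all wells also contain fluconazole at 8 µg/ml as a sub-toxic cotreatment; 0% = median of DMSO wells and 100% = median of geldanamycin control wells; wells of about 8 µL received 7.5 nL stock; the first replicate is given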
# RanGTP-Impb inh = disruptors of Ran-importin-beta complex formation – biochemical, FRET, CFP-Ran, YFP-importin-beta, homogeneous, primary screen; cell-free CFP-Ran/YFP-importin-beta FRET ratio; inhibition, % (concentration not given with the values); 1.1% of 300,000 active;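 active = most replicates above 15%; inconclusive = exactly half above 15%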;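 also: 0% = DMSO wells and 100% = Ran loaded with GDP instead of GTP; wells of about 40 µL received 100 nL stock; the first replicate is given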
# Vif A3G = inhibitors of Vif binding to APOBEC3G peptide, primary screen, biochemical, TR-FRET, GST-Vif 1-94, biotin-A3G peptide, dose response retest (AID 1117319). TR-FRET GST-Vif / biotin-A3G peptide binding; higher % means a stronger effect; test concentration not given here; strong numbers were not always called active. inhibition, %; hits with a dose series show IC50 in µM. 0.57% of 260,000 active;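 active = above the screen mean plus three standard deviations and confirmed in dose response; inconclusive = results disagree or hit not tested in dose response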;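 also: Vif residues 1-94 fused to GST binding biotinylated APOBEC3G peptide 110-148; 0% = full assay without inhibitor and 100% = GST in place of GST-Vif; retest series ran down from 100 µM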
# LANA-H2A inh = blocks KSHV LANA binding to histone H2A/H2B; Q9QR71; cell-free LANA-H2A/H2B peptide, fluorescence polarization; inhibition, % (concentration not given with the values); 0.6% of 320,000 active; in the data active = inhibition mostly above about 10%, no sharp cut-off; inactive = mostly below about 6.7%;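 also: stock transfer was 7.5 nL into about 10 µL; 0% = median of vehicle wells and 100% = median of positive control wells; one replicate is shown; the record names a cut of 25% in any replicate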
# Target sequence (Q9QR71 whole entry, looked up): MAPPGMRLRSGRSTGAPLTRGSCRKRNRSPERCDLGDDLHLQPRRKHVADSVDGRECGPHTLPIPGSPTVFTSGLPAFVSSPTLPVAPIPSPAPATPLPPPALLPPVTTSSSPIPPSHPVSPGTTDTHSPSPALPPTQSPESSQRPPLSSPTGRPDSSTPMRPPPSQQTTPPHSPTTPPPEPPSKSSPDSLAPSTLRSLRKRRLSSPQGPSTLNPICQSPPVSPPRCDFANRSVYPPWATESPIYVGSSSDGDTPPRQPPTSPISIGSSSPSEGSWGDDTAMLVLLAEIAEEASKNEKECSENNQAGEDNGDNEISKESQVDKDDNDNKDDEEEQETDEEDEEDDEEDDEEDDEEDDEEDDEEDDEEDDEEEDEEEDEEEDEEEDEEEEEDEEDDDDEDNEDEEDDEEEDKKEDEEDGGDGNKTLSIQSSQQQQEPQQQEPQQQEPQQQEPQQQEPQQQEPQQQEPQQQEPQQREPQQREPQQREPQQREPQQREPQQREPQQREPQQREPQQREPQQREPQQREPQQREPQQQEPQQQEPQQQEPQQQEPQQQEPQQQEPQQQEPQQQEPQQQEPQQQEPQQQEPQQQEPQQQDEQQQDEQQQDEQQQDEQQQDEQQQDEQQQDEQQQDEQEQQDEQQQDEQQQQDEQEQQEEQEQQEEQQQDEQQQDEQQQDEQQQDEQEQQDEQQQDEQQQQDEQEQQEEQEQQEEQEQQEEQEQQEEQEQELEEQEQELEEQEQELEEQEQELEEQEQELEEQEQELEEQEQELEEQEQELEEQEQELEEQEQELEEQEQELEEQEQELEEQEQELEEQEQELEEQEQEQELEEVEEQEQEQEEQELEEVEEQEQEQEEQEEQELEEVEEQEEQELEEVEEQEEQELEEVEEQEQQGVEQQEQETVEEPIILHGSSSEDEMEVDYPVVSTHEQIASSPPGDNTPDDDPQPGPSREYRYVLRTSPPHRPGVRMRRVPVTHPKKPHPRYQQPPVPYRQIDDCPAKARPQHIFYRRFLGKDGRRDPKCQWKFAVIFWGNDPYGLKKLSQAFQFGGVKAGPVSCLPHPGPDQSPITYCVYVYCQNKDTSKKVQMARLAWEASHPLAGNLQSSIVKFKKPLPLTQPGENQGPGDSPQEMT
# * = called active by the depositor; ? = inconclusive; . = no result given; & = joins results of further samples.
SMILES,T cruzi inh,Bfl-1 A1 inh,AF4-AF9 inh,Beta cell apopt,Calb FLC,RanGTP-Impb inh,Vif A3G,LANA-H2A inh
Cc1cnc(C(=O)Nc2ccc(C(=O)N3CCCCC3)cc2)cn1,-3.0,-1.4,.,-3.4,?,-2.7,-3.4%,-2.4
COc1ccc(CNS(=O)(=O)c2ccc3oc(C(=O)O)c(C)c3c2)cc1,-19.3,0.4,-6.6,.,-6.4,3.3,8.8%,-1.9
O=C(NCc1cccs1)C1CCCN(C(=O)Nc2ccc(F)cc2)C1 (stereo not given),-2.5,-1.3,-5.0,-5.2,1.3,-0.1,.,6.5
COc1cccc(N(C(=O)Cn2nnc(-c3ccc(F)cc3)n2)C(C(=O)NCC2CCCO2)c2ccc(Cl)cc2)c1 (stereo not given),6.7,-0.4,-1.3,-8.1,2.8,-1.3,13.5%,-3.4
Cn1cc(C(=O)C(=O)NC2CCCCC2)c2ccccc21,6.4,-1.1,0.0,8.0,.,.,2.4%,-2.3
CCOc1ccc(-c2nnc(N3CCCCC3)c3ccccc23)cc1,50.5,-0.5,.,10.0,-16.6,1.0,-49.0%,5.3
CCOC(=O)Cc1csc(NC(=O)CSc2nc(-c3ccccc3)c(C#N)c(=O)[nH]2)n1,2.2,0.1,-11.6,.,-5.4,-0.9,-2.7%,2.3
CC(=O)NCCc1ccc(C(=O)CSc2nnc(C3CC3)n2C2CC2)cc1,.,-1.7,-7.6,-1.6,.,.,-1.9%,1.3
CC(C)/C=C/C(=O)N1CCC(N2CCC(C(=O)NCc3ccccn3)CC2)CC1,-10.5,-0.6,1.0,-7.1,0.1,6.3,.,1.3
O=C1N[C@@H](Cc2ccccc2)COC(=O)[C@H](Cc2ccc(F)cc2)CC/C=C/C[C@H]1CC(=O)N(CCO)Cc1ccccc1,.,-1.6,2.8,0.3,.,.,.,-2.7
Cc1ccc(OCCC(=O)Nc2ccc(S(=O)(=O)Nc3nccs3)cc2)cc1,.,1.0,-0.2,-0.5,.,.,-4.0%,3.1
O=C(C1=C(O)C(=O)N(Cc2cccnc2)C1c1cccc(Oc2ccccc2)c1)c1ccco1 (stereo not given),.,0.3,-3.0,-3.5,.,.,.,0.6
Cc1ccc(/C=C/C(=O)OC(C)C(=O)Nc2ccc(Cl)cn2)o1 (stereo not given),-6.8,0.4,.,-7.4,2.7,-4.3,20.7%,-1.0
COc1ccc2c(c1)Cc1sc(NC(=O)c3cccs3)nc1-2,54.7*,-7.5,.,9.5,4.6,-6.1,19.2%,2.1
CC[C@H](C)[C@H](NC(N)=O)C(=O)NCCc1ccc(Cl)cc1Cl,-12.0,0.7,-0.7,.,7.1,-3.9,.,-5.8
CC(c1ccco1)N(C(=O)c1cccc(Br)c1)c1ccccn1 (stereo not given),9.3,0.3,2.2,3.3,1.1,1.2,.,1.5
CCc1ccc(Nc2nc3ccccc3c(=O)s2)cc1,-4.0,0.1,.,2.4,-0.8,-4.2,-4.5%,-2.8
CC[C@]12c3[nH]c4ccccc4c3CCN1C(=O)C(CC(=O)NCCc1ccccn1)C[C@@H]2C(=O)N1CCN(C(=O)c2ccco2)CC1 (stereo not given in full),.,0.4,-1.2,1.0,.,.,2.6%,-435.6
CCOC(=O)C(C(=O)OCC)C(C(=O)OCC)N1CCOCC1 (stereo not given),-20.7,?,.,.,-8.0,-0.8,-3.8%,-2.9
CCN(c1ccc(OC)cc1)S(=O)(=O)c1ccc2c(c1)CCN2C(=O)CCC(=O)O,7.2,1.1,.,-4.0,0.5,4.7,-5.0%&0.7%,-1.4
CCOc1ccccc1C(=O)N1CCCCC1C (stereo not given),-8.3,0.1,.,-7.0,25.5,1.0,-5.0%,-0.4
CCCC(=O)NCc1nc2ccccc2n1CC(=O)c1ccccc1,-6.6,0.7,-3.4,-1.7,.,0.0,0.7%,-9.1
CC(=O)Nc1ccc(S(=O)(=O)N/N=C/c2ccc(C)o2)cc1,-18.3,0.9,-1.0,1.3,-27.5,0.3,24.4%,3.1
COc1ccc(N(CC(=O)Nc2c(C)n(C)n(-c3ccccc3)c2=O)S(=O)(=O)c2ccc(C)cc2)cc1,-5.1,0.3,-0.4,-8.1,3.6,0.6,.,3.8
Cc1cccc(Cc2nnc(CCC(=O)NCc3cn4ccccc4n3)o2)c1,-3.7,-0.1,-0.2,-0.8,-4.3,-2.3,13.5%,-1.6

# Further entries.
SMILES,T cruzi inh,Bfl-1 A1 inh,AF4-AF9 inh,Beta cell apopt,Calb FLC,RanGTP-Impb inh,Vif A3G,LANA-H2A inh
CCOC(=O)c1cccc(NC(=O)CCNS(=O)(=O)c2cccc3nonc23)c1,0.7,0.6,3.8,-13.6,-9.7,1.0,-3.3%,5.0
Cc1ccc(-c2ccc(=O)n(CC(=O)NCCCN3CCCCC3C)n2)cc1 (stereo not given),15.9,-0.2,.,0.0,-0.7,3.3,-1.1%,-1.4
Cc1cccc(CSc2ccc3nnc(-c4cccnc4)n3n2)c1,18.6,0.4,.,2.8,-33.7,-3.0,11.8%,0.4
Cn1c(N)c(C(=O)COC(=O)/C=C/c2ccc(F)cc2)c(=O)n(C)c1=O,.,-0.1,0.2,-2.3,.,.,5.0%,-347.4
O=[N+]([O-])c1ccccc1CS(=O)(=O)c1ccccc1,-17.0,-0.5,2.6,-7.2,-10.2,?,.,-2.8
COc1ccccc1NS(=O)(=O)c1cccc(C(=O)OCC(=O)NC2CC2)c1,-14.4,0.2,2.3,-1.3,-3.4,-3.9,5.7%,-0.5
COc1ccccc1NC(=O)Cc1csc(N)n1,-21.6,0.2,0.4,-3.7,6.9,1.3,1.4%,-0.3
CCOc1ccc(N(CC(=O)N/N=C/c2cccnc2)S(C)(=O)=O)cc1,5.0,0.4,2.2,-3.0,-6.1,-2.3,28.8%,-6.8
Cc1ccccc1-c1cc(C(=O)NCc2ccc(OC(F)(F)F)cc2)n(CC2CC(c3cccnc3)=NO2)n1 (stereo not given),.,1.5,3.8,-5.4,.,.,.,-4.5
CN(C(=O)COC(=O)c1cccc(S(=O)(=O)N2CCOCC2)c1)C1CCS(=O)(=O)C1 (stereo not given),3.0,0.0,.,3.0,-0.5,-2.2,-3.1%,-4.9
CC(C)Oc1ccc(S(=O)(=O)N2CCOCC2)cc1NC(=O)c1cc([N+](=O)[O-])ccc1N1CCOCC1,19.3,-0.1,4.2,4.5,10.0,-1.0,.,2.7
CCC1CC(C)(C(=O)Nc2ccc(S(N)(=O)=O)cc2)OC1=O (stereo not given),-10.3,-0.3,.,9.2,-4.5,3.3,-3.5%,-0.2
Cc1ccc(C)c(/C(O)=C2/C(=O)C(=O)N(CCN3CCOCC3)C2c2ccc(C)o2)c1 (stereo not given),-5.2,-0.3,.,-1.9,-2.7,?,?,1.3
COc1cc2ccccc2cc1C(=O)N(CCN(C)C)c1nc2c(C)cccc2s1,35.4,0.5,15.4,5.6,34.2,-1.9,.,-3.3
COc1ccccc1NC(=O)CSc1sc2c(O)cc(=O)[nH]c2c1C#N,-8.5,0.8,3.4,5.9,-3.8,3.3,.,2.8
CCN1C(=NCCc2cccnc2)N[C@@H](c2ccccc2)[C@H](C(=O)OC)[C@H]1C,5.5,0.5,.,-7.5,-21.1,0.3,.,1.6
COC(=O)C1CCN(C(=O)C23CCC(C)(C(=O)O2)C3(C)C)CC1 (stereo not given),-2.0,-0.6,.,-2.3,-1.0,-0.4,-1.8%,-1.0
CCOC(=O)C1CCCN(S(=O)(=O)c2c(C)c(C)cc(C)c2C)C1 (stereo not given),22.8,0.4,.,-3.0,-0.9,3.5,2.6%&4.3%,-4.2
COc1ccc(OC)c(NC(=O)c2nc3ccccc3s2)c1,-4.5,-0.6,3.0,-1.8,-4.7,3.0,-5.7%,1.1
COc1cc(/C=N/Nc2ncc(C(F)(F)F)cc2Cl)cc(OC)c1OC,-7.9,-0.2,0.5,7.0,-5.0,-0.8,.,2.6
CCN(c1ccc(NC(=O)COC(=O)/C=C/c2cccs2)cc1)C(C)C,12.5,0.4,9.7,1.3,-4.9,1.0,0.4%,2.2
Cc1ccc(S(=O)(=O)N(C)C)cc1-n1c(SCC(=O)Nc2ccc(F)c(F)c2F)nc2ccccc2c1=O,40.2,0.3,.,3.0,-42.4,6.2,-5.1%,0.8
Cc1nc(NC(=O)c2cnccn2)ccc1Br,-0.1,-9.4,-2.5,5.6,1.6,?,-0.4%,1.5
Cn1c(=O)[nH]c(=O)c2c1nc1n2CC(O)CN1c1ccccc1 (stereo not given),-17.3,1.4,4.5,-0.4,18.8,3.2,-0.7%,0.1
CCCNC(=O)C(Cc1ccc(C(F)(F)F)cc1)NC(=O)c1ccc2ccccc2n1 (stereo not given),.,-0.6,-4.1,3.0,.,.,.,5.0

# Further results follow:
SMILES,T cruzi inh,Bfl-1 A1 inh,AF4-AF9 inh,Beta cell apopt,Calb FLC,RanGTP-Impb inh,Vif A3G,LANA-H2A inh
Cc1nn(C(C)C(=O)N2CCOCC2)c(=O)c2nn(-c3ccccc3)c(C)c12 (stereo not given),-6.0,0.1,-0.5,-2.3,0.8,-1.1,.,-12.8
CN(C)Cc1cn(CCC(=O)O)c2ccccc12,-6.5,0.2,.,2.6,?,-0.4,-4.0%,3.2
COc1ccc(Cl)cc1C(=O)Nc1ccc(N(C)C(C)=O)cc1,-2.9,0.0,.,2.1,0.8,2.2,-6.0%,-1.2
CN(C)C(=S)Nc1ccc2ccccc2c1,-14.4,2.0,.,-3.8,5.3,-0.3,19.6%,-0.4
O=S(=O)(NC1CCCC1)c1ccc(S(=O)(=O)N2CCc3ccccc32)cc1,.,-0.8,.,41.1,.,.,29.4%,3.3
CCCCCc1c(C)c(C#N)c2nc3ccccc3n2c1-n1ccnc1C,12.7,0.2,.,1.7,-6.2,-1.4,-0.1%,-1.5
Nc1nc(SCc2c(F)cccc2Cl)[nH]c(=O)c1-c1ccccc1,5.8,.,.,.,-3.5,0.3,1.3%,.
COc1cccc(C(=O)Nc2ccc3c(c2)OCO3)c1OC,-15.1,-7.6,0.7,.,1.6,-1.0,.,-0.2
COc1ccc(C(C[N+](=O)[O-])c2c(C)[nH]c3ccccc23)cc1OC (stereo not given),6.6,-0.3,.,.,-7.6,-1.7,.,0.3
CC(=O)Nc1ccc(Oc2cc(C#N)c(C#N)cc2N2CCCCCC2)cc1,.,-0.3,.,5.5,.,.,?,4.8
Cc1sc2nc(SCCN(C)C)n(-c3ccccc3)c(=O)c2c1-c1ccc(F)cc1,50.5,-0.2,16.0,-1.3,3.4,3.0,.,-5.9
O=C(C1CC1)N1CCCC(c2ccc(Cl)cc2)=N1,2.7,-0.3,5.6,-10.5,3.8,-1.9,6.1%,-4.2
CCOC(=O)CC1=NN(c2ccccc2)C(=O)/C1=C\c1ccc(N(C)C)cc1,4.3,-0.6,0.3,-1.3,0.3,-4.2,-9.4%,-2.5
CCOC(=O)CN(Cc1ccccc1)C(=O)OC(C)(C)C,-23.4,3.4,.,-0.5,-5.4,3.1,.,-1.3
Cc1cccc(N(CC(=O)N2CCCC2)S(C)(=O)=O)c1,-2.9,2.5,6.6,-10.0,-1.1,-1.1,-7.1%,1.2

# Assay outcomes: PubChem BioAssay, several laboratories
